Assay outcomes from PubChem.
Mtb MbtI inh: blocks the Mycobacterium tuberculosis siderophore enzyme MbtI. P9WFX0. purified MbtI enzyme, fluorescence intensity read-out. inhibition, %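 (about 17 µg/mL by stock and volumes)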. 0.89% of 100,000 active;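 active = above 50% in both replicates, above 80% if mildly self-fluorescent; inactive = the rest, strongly fluorescent compounds included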;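 also: 0% = mean of negative and 100% = mean of positive controls; one replicate is shown; some compounds called inactive have numbers as strong as hits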
Target sequence (P9WFX0 whole entry, looked up): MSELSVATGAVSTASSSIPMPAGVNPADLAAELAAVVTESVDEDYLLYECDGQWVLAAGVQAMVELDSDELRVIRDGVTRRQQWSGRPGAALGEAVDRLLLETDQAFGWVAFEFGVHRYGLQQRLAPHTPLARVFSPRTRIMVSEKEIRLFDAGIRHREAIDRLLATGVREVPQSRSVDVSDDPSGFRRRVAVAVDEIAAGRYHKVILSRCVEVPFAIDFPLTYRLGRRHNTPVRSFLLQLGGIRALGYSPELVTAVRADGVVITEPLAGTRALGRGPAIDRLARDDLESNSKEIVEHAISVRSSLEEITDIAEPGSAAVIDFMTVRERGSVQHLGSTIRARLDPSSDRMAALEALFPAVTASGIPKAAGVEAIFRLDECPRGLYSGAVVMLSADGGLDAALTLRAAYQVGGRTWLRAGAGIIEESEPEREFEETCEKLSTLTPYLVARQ
Mtb MenB inh: Mtb MenB enzyme inhibition; P9WNP5; MenB enzyme assay, absorbance read-out; some hits fall short of the stated cut; inhibition, %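 (about 12 µg/mL by stock and volumes)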; 0.43% of 100,000 active; AID 540299;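 active = mean of two replicates above 30%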;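 also: 0% = no compound and 100% = wells with inactive enzyme; the first replicate is given; strong numbers were not always called active; inactives centre near -10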
Target sequence (P9WNP5 whole entry, looked up): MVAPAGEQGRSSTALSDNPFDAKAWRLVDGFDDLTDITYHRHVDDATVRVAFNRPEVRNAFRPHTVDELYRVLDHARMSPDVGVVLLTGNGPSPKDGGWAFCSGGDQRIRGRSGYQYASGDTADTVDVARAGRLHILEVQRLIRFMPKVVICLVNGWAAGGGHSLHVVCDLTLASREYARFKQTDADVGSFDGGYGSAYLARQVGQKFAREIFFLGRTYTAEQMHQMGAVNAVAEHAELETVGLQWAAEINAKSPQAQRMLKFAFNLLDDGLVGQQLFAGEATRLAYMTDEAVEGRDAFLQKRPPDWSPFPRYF
PV pol inh: inhibitors of poliovirus RNA polymerase binding and polymerization; P03300; % elongation, % (compound at 16.7 µg/mL); 0.66% of 150,000 active; AID 588519; poliovirus polymerase elongation, fluorescence polarization; stronger effect = lower value; in the data active = % elongation below about 90%; also: some results filed as inactive read as strong as hits
PV pol inh intensity: second read-out of PV pol inh, no call of its own (marks repeat the call); % elongation; measured here: total intensity read-out; formula for this scale not given here;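 total fluorescence in place of polarization; lower means less elongation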
* = called active by the depositor; i = inactive; x = no result given.

SMILES | Mtb MbtI inh | Mtb MenB inh | PV pol inh | PV pol inh intensity
COc1ccc(NC(=O)N(C2CCCCC2)C(C)c2ccco2)c(OC)c1 (stereo not given) | -20 | -21 | 100 | 103
Cn1cc(C(=O)OCC(=O)Nc2ccc(Cl)cn2)c2ccccc21 | 6 | -8 | 103 | 112
CC(C)n1c(-c2ccccc2)csc1=Nc1ccccc1 | 10 | -20 | 102 | 102
CC[N+]1(C)C2CCC1CC(OC(=O)[C@H]1CCC(C(=O)OC3CC4CCC(C3)[N+]4(C)CC)(c3ccccc3)c3ccccc31)C2 (stereo not given in full) | -14 | -5 | 99 | 98
CN(CCNC(=O)c1cc(=O)[nH]c2ccc(S(=O)(=O)N3CCCCC3)cc12)Cc1ccccc1 | -10 | 9 | 99 | 103
O=c1oc2c(-c3ccc(Br)cc3)cc(O)cc2s1 | 3 | x | 99 | 98
CCN=C(NCC)Nc1ccc(Cl)cc1 | 0 | 4 | 101 | 97
Cn1c(=S)n(CCSc2nc3ccccc3n2-c2ccccc2)c2ccccc21 | x | 6 | 98 | 107
O=C(COc1ccc2oc3c(c2c1)CCCC3)Nc1ccccn1 | -12 | -42 | 102 | 103
O=C(/C=C/c1ccco1)NNc1ccc2ccccc2n1 | 24 | -23 | 109 | 112
COC(=O)C(Cc1ccc(O)cc1)NC(=O)NC12CC3CC(CC(C3)C1)C2 (stereo not given) | -18 | 7 | 100 | 103
CC(C)=C1C2C=CC1C1C(=O)N(Cc3cccnc3)C(=O)C21 (stereo not given) | x | -8 | 102 | 108
CCOc1ccc2nc(NC(=O)c3ccccc3F)sc2c1 | 5 | -12 | 105 | 106
N#CC(C#N)=CNNc1ncnc2ccsc12 | -10 | -13 | 105 | 100
O=C(Nc1ccc(OC(F)(F)F)cc1)Nc1ccc(C2=NCCO2)cc1 | 76 | 2 | 102 | 95
Cc1nonc1OCCn1nnc(N)n1 | 0 | 16 | 101 | 101
CNc1ccc(Br)cc1-c1nc2ccccc2[nH]c1=O | -5 | -16 | 98 | 105
O=C(O)CCc1nc2ccccc2c(=O)n1C1CC1 | -3 | 1 | 97 | 103
CCN(CC)N1CCN(S(=O)(=O)c2ccc(S(=O)(=O)c3ncccn3)cc2)CC1 | -3 | -13 | 106 | 108
CC(Oc1ccccc1)C(=O)Nc1scc2c1c(=O)oc1ccccc12 (stereo not given) | 58 | -20 | 95 | 90
C/C(O)=C\c1sc2ccccc2[n+]1C | 7 | 21 | 100 | 101
COC(=O)c1ccc(C2Nc3c(C(=O)OC)cccc3C3C=CCC32)cc1 (stereo not given) | x | -11 | 103 | 118
CN(C)S(=O)(=O)c1cccc(C(=O)C2=C3SC=C(c4ccccc4)N3CC2)c1 | 21 | -13 | 45 | 237
CC(C)(O)C#Cc1ccccc1C(=O)NC(CC(N)=O)C(=O)O (stereo not given) | -5 | -19 | 103 | 102
Cc1cc2c(cc1C)CN(c1cccc(C(=O)N/N=C/c3ccco3)c1)C2 | -5 | -19 | 105 | 103
COc1cc2c(cc1OC)C(c1cccs1)N(C(=O)c1cccs1)CC2 (stereo not given) | 11 | -2 | 100 | 106
CC(C)NC(=O)Cn1nnc(-c2ccc(Cl)cc2)n1 | 0 | -28 | 101 | 100
O=C(Cc1cccs1)NC1CCCCCC1 | -14 | -10 | 102 | 104
O=C(CO)Nc1cccc(NC(=O)CO)n1 | -3 | -25 | 102 | 102
Nc1cc(=O)[nH]c(Nc2ccc(Oc3ccccc3)cc2)n1 | -10 | -14 | 100 | 104
Cc1ccc2c(=O)c(C(=O)c3ccccc3)coc2c1 | 5 | 6 | 101 | 105
COc1ccccc1NC(=O)/C=C/c1cn(CCC#N)nc1-c1ccc(Cl)cc1 | 8 | 4 | 99 | 107
O=C1NCC(COc2ccc(Cl)cc2)O1 (stereo not given) | 3 | 1 | 99 | 104
O=C(CN1CCOCC1)NN1C(=O)c2cccc3cccc(c23)C1=O | 99 | 3 | 100 | 101
CCOc1ccc(/C=C(\C#N)C(=O)NCc2ccco2)cc1OC | -76 | -31 | 103 | 103
CSc1ccc2c(c1)C(N1CCN(C)CC1)Cc1ccccc1S2 (stereo not given) | -12 | 7 | 100 | 100
CN(C)c1ccc(NC(=O)CSc2nc3ccccc3cc2C#N)cc1 | 10 | 18 | 99 | 103
COc1cc(C(=O)Cc2nccn2C)cc(OC)c1OC | 14 | -26 | 109 | 108
CCCCN(C)C(=O)c1c[nH]c2ccc(S(=O)(=O)Nc3ccc(OCC)cc3)cc2c1=O | -64 | -15 | 98 | 103
CN(C)Cn1nc(-c2ccccc2)n(-c2ccccc2)c1=S | 64 | -42 | 103 | 103
CC(C)(C)OC(=O)N1CCN(CCNC(=O)Nc2cc(Cl)cc(Cl)c2)CC1 | -22 | -5 | 103 | 104
CN1C=CC=C/C1=C(/C#N)C(=O)Nc1ccc(Cl)cc1 | 25 | -225 | 107 | 104
Cc1ncc2c(c1OC(=O)c1ccccc1)COC(C)(C)OC2 | -28 | -15 | 101 | 106
C=CCSc1nc2c(c(=O)[nH]1)C(c1ccccc1)C(C(=O)OCC)=C(N)O2 (stereo not given) | -1 | -25 | 102 | 99
CC(C)C(NS(=O)(=O)c1ccc2c(c1)OCCO2)C(=O)OCc1nc2ccsc2c(=O)[nH]1 (stereo not given) | 1 | -22 | 109 | 108
CC1Cc2ccccc2N1CC(=O)NCc1ccc2c(c1)OCO2 (stereo not given) | -23 | 4 | 104 | 110
CCCn1c(=N)c(C(=O)NC2CCCC2)cc2c(=O)n3ccccc3nc21 | i | -107 | 102 | 101
CCOC(=O)c1cc(-c2ccc(Cl)cc2)[nH]c(=O)c1C#N | -79 | -8 | 109 | 122
Cc1cccc(CC(=O)N2CCN(c3ccccc3)CC2)c1 | -12 | -19 | 104 | 103
CC1CCCCN1C(=O)Nc1cn(C)c(=O)c2ccccc12 (stereo not given) | 127 | -1 | 99 | 102
Next entries follow:
SMILES | Mtb MbtI inh | Mtb MenB inh | PV pol inh | PV pol inh intensity
CCN(CC)c1ccc(N=Cc2ccc3ccccc3n2)cc1 | x | -10 | 143 | 136
Cc1ccc(Cn2cc(CCCC(=O)N3CCCC3)c3ccccc32)cc1 | -2 | -28 | 104 | 107
COc1ccccc1Nc1cc(C(=O)NCCN2CCOCC2)c2ccccc2n1 | 5 | -36 | 101 | 103
COc1ccccc1C(=O)Nc1ccc2nc(C)sc2c1 | 9 | x | 102 | 101
CCc1ccc(Nc2cc(=O)oc3ccccc23)cc1 | i | -26 | 102 | 104
O=C(CCc1c(-c2ccc(F)cc2)[nH]c2ccc(F)cc12)N1CCN(C2CCS(=O)(=O)C2)CC1 (stereo not given) | 102 | -8 | 101 | 98
NNc1ccc2nnc(C(F)(F)F)n2n1 | -5 | -33 | 104 | 103
Cc1cccn2cc(CNC(=O)CC3CCCC3)nc12 | 101 | 1 | 103 | 105
OCCNC(=S)Nc1ccc(Cl)cc1 | 9 | -15 | 101 | 96
CCc1ccccc1Nc1nn2c(=O)c3ccc(C(=O)NCC4CCCO4)cc3nc2s1 (stereo not given) | -90 | -2 | 106 | 102
COC(=O)c1cccc(NS(=O)(=O)c2cccs2)c1 | 1 | -3 | 103 | 105
CCNc1nc(OC)nc(N2CCN(c3ccc(F)cc3)CC2)n1 | 2 | 4 | 102 | 102
O=C(CSc1nnc2c(n1)[nH]c1ccccc12)Nc1ccccc1 | -6 | 12 | 97 | 106
Cc1cc2c(cc(C(=O)NCCCN3CCOCC3)n2Cc2ccc(Cl)cc2)o1 | -2 | -10 | 102 | 104
CCC(c1nnnn1CCOC)N1CCN(c2cccc(C(F)(F)F)c2)CC1 (stereo not given) | 0 | 30 | 103 | 102
CCn1c2ccccc2c2cc(NC(=O)c3ccccc3C)ccc21 | -9 | -8 | 100 | 103
Cc1ccc(C2=NN(C(=O)CSc3ccccn3)C(c3ccco3)C2)o1 (stereo not given) | 4 | -10 | 101 | 110
CCN(c1ccccc1)S(=O)(=O)c1ccc(Cl)nc1 | -4 | x | 102 | 106
O=C(O)CCC(=O)NC1CCCCCCC1 | -1 | -4 | 101 | 100
COC(=O)c1cc(OC(=O)c2cc(OC)cc(OC)c2)cc(C(=O)OC)c1 | 3 | 0 | 100 | 99
CCc1ccc(OCCSc2nc(-c3ccco3)nc3cc(=O)[nH]n23)cc1 | -16 | 0 | 100 | 103
CC1=C(C)C/S(=N\S(=O)(=O)c2ccc(Cl)cc2)N(S(=O)(=O)c2ccc(Cl)cc2)C1 (stereo not given) | 53 | 1 | 101 | 103
CCOC(=O)c1ccc(NC(=O)CNC(=O)c2ccc(Cl)cc2)cc1 | -8 | x | 101 | 108
CN[C@@H]1[C@@H](O)[C@@H](O[C@@H]2[C@@H](O)[C@H](O[C@H]3O[C@H]([C@@H](C)NC)CC[C@H]3N)[C@@H](N)C[C@H]2N)OC[C@]1(C)O (tested in a mixture with another compound) | 3 | -97 | 101 | 99
O=C1N(c2ccc3c(c2)OCCO3)C(c2ccccc2)C1(F)F (stereo not given) | -14 | x | 105 | 105
O=C(NC1CCN(Cc2ccccc2)CC1)c1cc(-c2ccccc2)n[nH]1 | 3 | -11 | 104 | 101
CCn1nnc(NC(=O)C(C)(c2ccccc2)c2ccccc2)n1 | 6 | -16 | 100 | 101
CSc1nc2cc(C)nn2c(-c2ccc(C(C)(C)C)cc2)c1C#N | -11 | -8 | 103 | 107
O=C(O)CCC(=O)Nc1ccc2c(c1)oc1ccccc12 | 26 | -5 | 101 | 101
N#Cc1c(-c2cccs2)cc(-c2cccs2)nc1SCc1cccnc1 | 88 | 8 | 101 | 104
CC(=O)N1C2=C(CCCC2)C(=O)NC12CCCCC2 | 10 | -6 | 102 | 95
CCOc1ccc(NC(=O)NCCCn2c(C)nc3cc(C)c(C)cc32)cc1 | -2 | 2 | 102 | 103
CCOc1ccccc1OC(=O)Cc1cc(OC)c(OC)c(OC)c1 | -7 | -21 | 105 | 98
CC1(C)CC(NC(=O)COc2ccc(C#N)cc2)CC(C)(C)N1 | -7 | x | 103 | 107
CCN1CCN(C(=O)C2CCN(S(=O)(=O)c3ccc4c(c3)nc(C)n4C3CCCC3)CC2)CC1 | 0 | -59 | 104 | 98
OC(c1ccc2c(c1)OCO2)c1cccs1 (stereo not given) | x | -20 | 46 | 254
COC(=O)c1ccc2c(c1)sc1nc(-c3ccc(Cl)cc3)cn12 | -13 | -8 | 106 | 105
COCCn1ccc2c(OCC(=O)Nc3cccc(NC(C)=O)c3)cccc2c1=O | -15 | -7 | 105 | 102
CC(C)N1C(=O)c2ccccc2C1C(=O)NCCc1ccccc1 (stereo not given) | -10 | -16 | 102 | 100
Oc1ccc2ccccc2c1CN1CCN(C/C=C/c2ccccc2)CC1 | 89 | -45 | 102 | 103

In a second layout: 5 of the compounds above.
SMILES	Mtb MbtI inh	Mtb MenB inh	PV pol inh	PV pol inh intensity
COCCn1ccc2c(OCC(=O)Nc3cccc(NC(C)=O)c3)cccc2c1=O	-15	-7	105	102
CC(C)N1C(=O)c2ccccc2C1C(=O)NCCc1ccccc1 (stereo not given)	-10	-16	102	100
CCN1CCN(C(=O)C2CCN(S(=O)(=O)c3ccc4c(c3)nc(C)n4C3CCCC3)CC2)CC1	0	-59	104	98
OC(c1ccc2c(c1)OCO2)c1cccs1 (stereo not given)	x	-20	46	254
CCOc1ccc(NC(=O)NCCCn2c(C)nc3cc(C)c(C)cc32)cc1	-2	2	102	103

Part of the list above in order of molecular weight, rising:
SMILES | Mtb MbtI inh | Mtb MenB inh | PV pol inh | PV pol inh intensity
COC(=O)c1ccc2c(c1)sc1nc(-c3ccc(Cl)cc3)cn12 | -13 | -8 | 106 | 105
CCOc1ccccc1OC(=O)Cc1cc(OC)c(OC)c(OC)c1 | -7 | -21 | 105 | 98
Oc1ccc2ccccc2c1CN1CCN(C/C=C/c2ccccc2)CC1 | 89 | -45 | 102 | 103
COCCn1ccc2c(OCC(=O)Nc3cccc(NC(C)=O)c3)cccc2c1=O | -15 | -7 | 105 | 102

More structures follow.
SMILES | Mtb MbtI inh | Mtb MenB inh | PV pol inh | PV pol inh intensity
CC(Sc1nnc(COc2ccccc2F)n1-c1ccccc1)C(=O)NC(N)=O (stereo not given) | -15 | -3 | 106 | 106
COC(=O)c1cn(CC(=O)N2c3ccccc3CC2C)c2ccccc12 (stereo not given) | -23 | -43 | 103 | 104
CC1Cc2ccccc2N1S(=O)(=O)c1ccc2[nH]c(=O)c(=O)[nH]c2c1 (stereo not given) | -1 | -7 | 103 | 103
c1csc(-c2nc(-n3ccnc3)c3ccccc3n2)c1 | -22 | 0 | 101 | 106
CCSc1cnn(C)c(=O)c1SCC | 7 | -12 | 101 | 104
CC(C)(C)c1cc(C(=O)Nc2ccc(Cl)cc2)n(Cc2ccccc2)n1 | 8 | -46 | 100 | 89
COc1ccc(-c2noc(CCC(=O)O)n2)cc1OC | -8 | 0 | 100 | 98
Cc1noc(C)c1COc1ccc(C(=O)NCC2COc3ccccc3O2)cc1 (stereo not given) | -3 | -5 | 103 | 99
CCc1ccc(NC(=O)N2CCCC(CN3CCc4ccccc4C3)C2)cc1 (stereo not given) | 9 | -20 | 102 | 100
O=C(Cc1noc2ccccc12)NCCOC12CC3CC(CC(C3)C1)C2 | -1 | -3 | 103 | 98
CC(C)COC(=O)c1nnsc1NC(=O)Nc1ccccc1 | -10 | -5 | 102 | 102
